UCH37 inh: inhibitors of human UCH37 deubiquitinase, primary screen, biochemical, Ub-AMC cleavage, fluorescence. Ubiquitin carboxyl-terminal hydrolase isozyme L5 (Homo sapiens), Q9Y5K5. purified proteasome/UCH37. inhibition, % (concentration not given with the values). 330,000 compounds, 0.33% hits;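 active = mean of two replicates above 20%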;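 also: 0% = compound-free wells with enzyme and 100% = wells lacking proteasome; stock transfer was 100 nL into about 20 µL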
Target sequence (Q9Y5K5 whole entry, looked up): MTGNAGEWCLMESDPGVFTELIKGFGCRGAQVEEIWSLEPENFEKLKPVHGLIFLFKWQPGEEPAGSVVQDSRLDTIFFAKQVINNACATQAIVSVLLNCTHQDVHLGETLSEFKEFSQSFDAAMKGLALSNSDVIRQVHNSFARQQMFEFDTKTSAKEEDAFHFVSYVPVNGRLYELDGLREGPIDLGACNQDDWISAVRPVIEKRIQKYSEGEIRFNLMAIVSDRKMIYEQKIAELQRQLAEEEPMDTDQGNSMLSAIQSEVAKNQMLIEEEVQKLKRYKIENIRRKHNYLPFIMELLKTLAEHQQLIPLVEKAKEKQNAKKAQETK
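assay system = human UCH37 enzyme supplied as purified proteasome complex | amount = proteasome at 0.15 nM in the dispensed enzyme solution | schedule = 30 min compound-proteasome preincubation then 25 min substrate reaction, room temperature | measured by = fluorescence, ex 355 nm, em 460 nm | benchmarks = no-proteasome wells (full inhibition) and compound-free wells (no inhibition)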
RanGTP-Imp inh: inhibitors of RanGTP-importin-beta interaction, primary screen, biochemical, FRET, CFP-Ran, YFP-importin-beta, homogeneous | Ran GTPase (GTP-bound) - importin-beta complex | inhibition, % (test concentration not listed) | 300,000 compounds, 1.1% hits | cell-free CFP-Ran/YFP-importin-beta FRET ratio;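 active = most replicates above 15%; inconclusive = exactly half above 15%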;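 also: 0% = DMSO wells and 100% = Ran loaded with GDP instead of GTP; wells of about 40 µL received 100 nL stock; the first replicate is given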
Vif TR-FRET: inhibitors of Vif binding to APOBEC3G peptide, primary screen, biochemical, TR-FRET, GST-Vif 1-94, biotin-A3G peptide, dose response retest (AID 1117319); Virion infectivity factor (Human immunodeficiency virus type 1 group M subtype B (isolate …; TR-FRET GST-Vif / biotin-A3G peptide binding; higher % means a stronger effect; test concentration not given here; strong numbers were not always called active; one-dose inhibition, %; IC50 in µM for titrated hits; 260,000 compounds, 0.57% hits;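 active = above the screen mean plus three standard deviations and confirmed in dose response; inconclusive = results disagree or hit not tested in dose response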;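 also: Vif residues 1-94 fused to GST binding biotinylated APOBEC3G peptide 110-148; 0% = full assay without inhibitor and 100% = GST in place of GST-Vif; retest series ran down from 100 µM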
HNF4A DNA FP: change in binding of human HNF4A to DNA, primary screen, biochemical, fluorescence polarization, FITC-DNA | Hepatocyte nuclear factor 4-alpha (Homo sapiens), P41235 | 1 h | activity change, % at 10 µM | 360,000 compounds, 0.3% hits; in the data active = activity change above about 30%, passing the limit was not always enough;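 also: controls were the assay level and a saturating level of protein; the project sought stronger binding though the title names inhibitors; some compounds called inactive have numbers as strong as hits; positive values seem to mean higher polarization but the record does not say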
Target sequence (P41235 whole entry, looked up): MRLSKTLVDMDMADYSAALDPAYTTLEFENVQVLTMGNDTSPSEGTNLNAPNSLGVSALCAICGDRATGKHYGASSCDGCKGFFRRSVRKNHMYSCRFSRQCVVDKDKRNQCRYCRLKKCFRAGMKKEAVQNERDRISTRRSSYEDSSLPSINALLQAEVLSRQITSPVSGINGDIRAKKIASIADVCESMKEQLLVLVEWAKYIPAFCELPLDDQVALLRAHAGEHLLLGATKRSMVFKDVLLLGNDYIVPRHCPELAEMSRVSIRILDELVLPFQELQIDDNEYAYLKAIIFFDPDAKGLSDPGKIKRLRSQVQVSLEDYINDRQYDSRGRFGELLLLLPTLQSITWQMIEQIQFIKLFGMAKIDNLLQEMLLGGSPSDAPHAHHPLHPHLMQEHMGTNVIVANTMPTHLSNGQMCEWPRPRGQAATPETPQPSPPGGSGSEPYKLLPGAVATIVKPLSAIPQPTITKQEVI
Ecoli growth: E. coli growth inhibition, primary screen, OD600 | 330,000 compounds, 0.21% hits | Escherichia coli growth, 23 h; stronger effect = lower value | OD600 absorbance (no concentration beside the values);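 active = OD600 absorbance below the run mean of sample wells minus 3.6 SD, in any replicate, cut at about 0.56 in these data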;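 also: stock transfer was 300 nL into about 60 µL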
AF4-AF9 inh: inhibitors of AF4 peptide binding to AF9, primary screen, biochemical, AlphaScreen, biotin-AF4 peptide, FLAG-AF9, single point. Protein AF-9 (Homo sapiens), P42568. inhibition, % at 10 µM. 350,000 compounds, 0.47% hits;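 active = every replicate reaching a set inhibition limit, whatever the replicate mean, cut at about 25% in these data; inconclusive = mean inhibition reaches that limit but some replicates miss it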;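 also: 0% = plate neutral control median and 100% = total signal loss; the record names both 10 and 1 µM as test concentration; the first replicate is given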
FGF22 binding: binders of human FGF22 protein, primary screen, FGF22 synaptogenesis inhibitor project, biophysical, thermal shift, single point; 340,000 compounds, 1.5% hits; recombinant FGF22 thermal shift, SYPRO orange fluorescence; percent of sucrose octasulfate shift, DMSO zero; AID 651658, 2012; calls only at 9.99 µM; Fibroblast growth factor 22 (Homo sapiens), Q9HCT0;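 active = melting point raised past a set limit in the mean and every replicate; inconclusive = no clear call; three in four hits are not shown here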
Target sequence (Q9HCT0 whole entry, looked up): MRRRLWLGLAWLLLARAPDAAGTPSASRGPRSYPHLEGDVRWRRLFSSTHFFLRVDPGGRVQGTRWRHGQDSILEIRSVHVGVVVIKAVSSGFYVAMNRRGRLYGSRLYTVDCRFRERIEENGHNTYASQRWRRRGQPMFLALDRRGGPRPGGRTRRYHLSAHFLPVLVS
* hit, by the source's call; i = inactive; ? = inconclusive; · = no result given; & = joins results of further samples.

SMILES	UCH37 inh	RanGTP-Imp inh	Vif TR-FRET	HNF4A DNA FP	Ecoli growth	AF4-AF9 inh	FGF22 binding
Cc1nn(CC(=O)NCC(C)c2ccccc2)c(=O)c2cc3occc3n12 (stereo not drawn)	1.2	26	·	1.7	0.69	-1.1	i
O=C(N/N=C/c1ccc(N2CCOCC2)c([N+](=O)[O-])c1)c1ccc(F)cc1	·	-2.7	6%	-1.1	·	·	·
COc1cc(-c2nn3c(-c4ccccn4)nnc3s2)cc(OC)c1OC	-1.1	-1.2	?	·	0.69	·	·
Cc1ccc(NC(=O)C2C3CCCC2C3c2ccccc2)c(C)c1 (stereo not drawn)	0.7	-2.6	8%	-1.4	0.71	-2.8	i
Cc1c(NC(=O)c2ccc(S(=O)(=O)N(C)c3ccccc3)cc2)c(=O)n(-c2ccccc2)n1C	-0.7	-1.0	1%	1.4	0.71	4.9	i
Cc1ccc(-n2nc3c(c2NC(=O)CCC2CCCCC2)CS(=O)C3)cc1 (stereo not drawn)	2.5	3.5	29%	3.8	0.77	0.5	i
CC(C)(C)c1ccc(C(=O)Nc2ccc(C(=O)N3CCOCC3)cc2)cc1	3.5	2.6	·	0.5	0.74	0.5	i
CCc1ccccc1N=C1SCC(=O)N1C	0.2	1.8	?	3.5	0.72	·	·
Cc1ccc(C(=O)Nc2cccc(Oc3ccccc3)c2)o1	-0.9	9.7	16%	-1.1	0.67	·	·
COC(=O)Nc1ccc(S(=O)(=O)N2CCN(c3ccc(F)cc3)CC2)cc1	1.1	-1.8	1%	-1.2	0.67	·	·
COc1ccc(C/C(C)=N\NC(=O)c2cn(C)c3ccccc23)cc1OC	·	9.9	-2%	-3.2	·	0.2	i
O=C(Nc1cccc([N+](=O)[O-])c1)N(c1ccccc1)c1ccccc1	·	·	-2%	1.3	·	2.8	i
O=C(Nc1cccc(F)c1)C1CCN(C(=O)c2ccc(Cl)cc2)CC1	1.0	3.1	·	1.2	0.71	·	·
CCn1c(NCc2c[nH]c3ccccc23)nc2ccccc21	1.4	2.1	·	-3.3	0.71	·	·
Cc1noc(C)c1S(=O)(=O)N1CCN(S(=O)(=O)c2ccccc2C#N)CC1	-1.6	6.9	·	0.2	0.67	-1.4	i
C=CCn1c(=O)n(C(=O)OCC)c2cc(Br)ccc21	-0.7	5.4	-10%	0.5	0.64	2.3	i
F[B-](F)(F)c1cnc2ccccc2c1	·	·	·	9.0	·	-2.9	i
C[C@@H]1CN([C@H](C)CO)C(=O)CCCn2cc(nn2)CO[C@H]1CN(C)C(=O)Nc1ccccc1	·	·	-4%	-0.9	·	-5.3&0.2&-0.9	i
CN(C)C1(CNC(=S)Nc2ccccc2C(F)(F)F)CCCCC1	2.3	-1.6	2%	5.3	0.68	-1.9	i
CCN(CC)CCNc1nc(-c2ccccc2)nnc1C(F)(F)F	3.0	2.4	4%	1.7	0.68	·	·
Clc1ccc2nc(SCc3nnc(-c4ccccc4)o3)[nH]c2c1	1.1	-3.7	2%	3.4	0.64	·	·
O=c1[nH]cnc2c1ncn2C1OCC(O)C(O)C1O (stereo not drawn)	·	·	·	0.6	·	0.6	i
CCC1CCCCN1C(=O)Nc1cccc(NC(=O)N2CCCCC2CC)c1 (stereo not drawn)	4.3	-1.6	?	-1.5	0.77	·	·
O=C(Oc1ccc2ccc(O)cc2c1)c1ccccc1Cl	5.7	1.6	·	-2.5	0.6	0.7	i
N#Cc1cnn(-c2ccccc2)c1NC(=O)c1ccccc1F	0.4	·	5%	1.9	0.7	-0.3	i

Remaining list, next part:
SMILES	UCH37 inh	RanGTP-Imp inh	Vif TR-FRET	HNF4A DNA FP	Ecoli growth	AF4-AF9 inh	FGF22 binding
CC(C)COP(=O)(OCC(C)C)C(O)c1ccc2c(c1)OCO2 (stereo not drawn)	1.2	-2.6	5%	1.9	0.58	1.4	i
O=C(NC1CC1)c1ccc2sc([C@H]3C[C@H](O)[C@@H](CO)O3)nc2c1	·	·	·	0.1	·	-1.7	i
CC(C)CCNC(=O)c1ccc2c(c1)N(Cc1ccccc1)C(=O)CS2=O (stereo not drawn)	3.0	-1.2	-3%	0.3	0.74	-0.6	i
CC1(C)N=C(N)N=C(N)N1c1cc(Cl)ccc1Cl	·	·	·	0.8	·	-2.3	i
COc1ccc(C(C)=O)cc1Cn1c(C)c(C(=O)NCc2ccc3c(c2)OCO3)sc1=O	·	·	·	1.1	·	-1.9	i
Cc1nn(-c2ccccc2)c(Cl)c1/C=C1\SC(=S)NC1=O	5.4	3.4	-7%	31	0.66	·	·
COc1ccc(N(C(=O)c2ccc(Br)o2)C2C=CS(=O)(=O)C2)c(OC)c1 (stereo not drawn)	2.3	-2.3	12%	0.0	0.69	-1.2	i
O=C(O)/C(=C\c1cccc(F)c1)c1ccc(S(=O)(=O)N2CCCC2)s1	5.3	·	19%	-4.7	0.71	0.3	i
O=C(N/C(=C\c1cccnc1)C(=O)N1CCOCC1)c1ccco1	4.3	3.5	22%	-2.8	0.67	-7.9	i
CCCCn1c(N)c(N(CCC(C)C)C(=O)CSc2nnc(Nc3ccccc3)s2)c(=O)[nH]c1=O	4.4	-2.1	1%	-7.3	0.73	6.8	i
N#CC(c1ccc(Cl)nn1)c1ccccc1Cl (stereo not drawn)	-0.3	-1.8	1%	0.1	0.67	·	·
O=C(O)Cc1sc(Nc2ccccc2)nc1-c1ccc(Cl)cc1	-2.6	4.6	·	1.4	0.69	-5.1	i
CCCCNC(=S)N(C)/N=C/c1ccc(OCc2ccc(C(=O)OC)cc2)c(OC)c1	·	-0.4	2%	1.6	·	·	·
CC(C)C[C@@H](CN1CCC[C@H]1CN1C(=O)C(=O)NC[C@@H]1Cc1ccccc1)N1C[C@H](Cc2ccccc2)N(CCc2ccccc2)C(=O)C1=O	·	·	·	-1.5	·	4.5	i
COc1ccccc1-c1noc2ncnc(Nc3cccc(C)c3C)c12	0.6	1.6	·	3.3	0.72	0.5	i
Cc1[nH]c2ccccc2c(=O)c1CN1CCCCC1	4.3	0.2	-5%	-3.5	0.66	·	·
Cc1cc(C)c[n+](-c2[nH]c(=O)sc2/C=N/NC([S-])=Nc2ccccc2)c1	·	9.8	·	-46	·	-10	i
CSc1ccccc1C(=O)C1CCCN(C(=O)c2cc(C(C)C)no2)C1 (stereo not drawn)	5.5	4.8	-2%	-2.1	0.71	0.7	i
Cc1nc2c(-c3ccccc3)c(C)nn2c(N)c1-c1ccccc1	-7.4	8.9	6%	-7.4	0.7	·	·
CCOC(=O)C1=CN(CC)S(=O)(=O)NC1c1ccc(F)c(Cl)c1 (stereo not drawn)	-0.8	·	3%	-2.6	0.66	-0.7	i
COc1ccc(CCNC(=O)Nc2nc(C(N)CCc3ccccc3)cs2)cc1OC (stereo not drawn)	·	·	·	0.4	·	13	i
CC(=O)c1cccc(NC(=O)N2CCCC2C(=O)Nc2ccc3c(c2)OCCO3)c1 (stereo not drawn)	-4.0	·	1%	-0.9	0.71	-6.2	i
CC1CCCCN1C(=O)CCNS(=O)(=O)c1ccc2c(c1)c(=O)n(C)c(=O)n2C (stereo not drawn)	3.0	-5.3	·	-1.5	0.71	-1.3	i
CCc1ccnc(NC(=O)NS(=O)(=O)c2ccc(C)cc2)c1	1.8	-0.4	19%	-0.1	0.67	-1.1	i
C=C(C)Cn1c2ccc(NC(=O)NCCc3cccs3)cc2c(=O)n1C	·	·	·	-2.5	·	-8.2	i

Next section:
SMILES	UCH37 inh	RanGTP-Imp inh	Vif TR-FRET	HNF4A DNA FP	Ecoli growth	AF4-AF9 inh	FGF22 binding
Cc1csc(CNC(=O)C2CCC(=O)N(CCCc3ccccc3)C2)n1 (stereo not drawn)	5.4	-2.8	·	-0.3	0.67	1.0	i
COc1ccc(NC2=CC(=S)NC(C)(C)C2)cc1	16	2.9	-4%	39*	0.69	23	i
CC1=C(C(=O)OCc2ccccc2)C(c2ccccn2)c2c(n(C)c(=O)n(C)c2=O)N1 (stereo not drawn)	-5.4&-5.4	0.2	-8%&0%	2.0&-6.6	0.68&0.7	-0.5	i
Cc1c(C(=O)N(C)Cc2nc3ccccc3c(=O)[nH]2)oc2ccccc12	-1.0	·	-2%	3.3	0.67	9.3	i
CC(=O)Nc1nc2ccccc2n1CCOc1ccccc1	-0.9	-4.5	1%	6.0	0.69	·	·
CC1(c2ccc(Cl)cc2)NC(=O)N(CC(=O)N2CCc3ccccc3C2)C1=O (stereo not drawn)	1.7	·	1%	3.7	0.65	-2.2	i
CC(C)Oc1cccc(C(=O)C2CCCN(C(=O)CCc3cnn(C)c3)C2)c1 (stereo not drawn)	-0.9	0.3	-6%	-3.7	0.66	-0.7	i
O=C(CCc1ccccc1)NCC1OCCc2ccccc21 (stereo not drawn)	0.0	-1.8	0%	-0.3	0.67	-1.2	i
Cc1ccc(S(=O)(=O)N(C)[C@H]2C[C@H]3c4[nH]c5ccccc5c4CCN3C[C@H]2[C@H](C)O)cc1	·	·	·	-3.8	·	-1.3	i
Cc1cc(C)c2oc(C(=O)N(Cc3ccc(F)cc3)C3CCS(=O)(=O)C3)cc(=O)c2c1 (stereo not drawn)	-3.5	0.0	23%	3.8	0.7	0.8	i
Cc1ccc([C@@H]2CC(=O)[C@@H]3CN(S(=O)(=O)c4ccccc4C)[C@H](c4ccc(Cl)cc4)C[C@@H]3N2S(=O)(=O)c2ccc(C)cc2)cc1	·	·	5%	3.1	·	-7.9	i
O=C1COc2ccc(C(=O)COC(=O)C3CC(O)CN3S(=O)(=O)c3ccc(Cl)cc3)cc2N1 (stereo not drawn)	-0.5	0.0	-4%	-0.7	0.72	0.2	i
Cc1cccc(-c2nc(C#N)c(N3CCCCCC3)o2)c1	-133	3.3	-5%	0.6	0.68	·	·
COc1ccc(-n2c3c(c(=O)[nH]c2=O)C(NS(=O)(=O)c2ccc(Cl)cc2)(C(F)(F)F)C(=O)N3)cc1 (stereo not drawn)	3.6	-1.8	5%	-0.3	0.68	-13	i
CCOC(=O)c1c(NC(=O)C(C)OC(=O)c2ccc(NC(=O)CC#N)cc2)sc2c1CCCC2 (stereo not drawn)	-7.5	1.3	6%	12	0.71	-0.8	i
CCOC(=O)C(=CNc1ccc(S(N)(=O)=O)cc1)C(=O)OCC	9.4	5.5	2%	-1.1	0.72	-11	·
COc1ccc(NC2C=CS(=O)(=O)C2)cc1 (stereo not drawn)	3.1	-2.2	28%	-1.9	0.71	·	·

Complete entries as entered above. Screens in order: UCH37 inh	RanGTP-Imp inh	Vif TR-FRET	HNF4A DNA FP	Ecoli growth	AF4-AF9 inh	FGF22 binding
Shown for Cc1ccc(S(=O)(=O)N(C)[C@H]2C[C@H]3c4[nH]c5ccccc5c4CCN3C[C@H]2[C@H](C)O)cc1 = ·	·	·	-3.8	·	-1.3	i
Shown for COc1ccc(NC2C=CS(=O)(=O)C2)cc1 (stereo not drawn) = 3.1	-2.2	28%	-1.9	0.71	·	·
Shown for Cc1csc(CNC(=O)C2CCC(=O)N(CCCc3ccccc3)C2)n1 (stereo not drawn) = 5.4	-2.8	·	-0.3	0.67	1.0	i
Shown for CCOC(=O)C(=CNc1ccc(S(N)(=O)=O)cc1)C(=O)OCC = 9.4	5.5	2%	-1.1	0.72	-11	·
Shown for COc1ccc(-n2c3c(c(=O)[nH]c2=O)C(NS(=O)(=O)c2ccc(Cl)cc2)(C(F)(F)F)C(=O)N3)cc1 (stereo not drawn) = 3.6	-1.8	5%	-0.3	0.68	-13	i

Bioassay records (PubChem BioAssay)

An excerpt, so the mix of outcomes need not match the whole.
